# Screening data (PubChem BioAssay)
# KSHV LANA nucl = inhibitors of KSHV LANA-nucleosome binding, primary screen, biochemical, fluorescence polarization, FITC-LANA1-23, chicken nucleosomes. FITC-LANA1-23 / chicken nucleosome fluorescence polarization; stronger effect = lower value. z-score (concentration not given with the values). 51,000 compounds, 0.3% hits;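 active = both repeat wells score below -2 in polarization z-score versus plate sample wells, excluding overly bright wells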;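 note: 100 nL library stock added to about 30 µL; numbers are from one replicate; some results filed as inactive read as strong as hits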
#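 Material: Purified chicken nucleosomes with FITC-labelled LANA N-terminal peptide (1-23) | Reagent: 50 nM FITC-LANA1-23 probe | Medium: TEN-BT buffer, pH 7.5 | Times: 10–45 min incubation at room temperature | Detection: Fluorescence polarization | Replication: Duplicates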
# Ab BasE inh = BasE siderophore enzyme inhibitors, primary screen, biochemical, Acinetobacter baumannii ATCC 17978, fluorescence polarization; 84,000 compounds, 0.1% hits; purified BasE, fluorescence polarization binding displacement; inhibition, % (concentration not given with the values);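 active = both replicates above 25% with normal brightness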;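 note: 0% = negative plate control signal and 100% = positive plate control signal; stock transfer was 100 nL into about 30 µL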
# * marks the source's active call; other numbers are inactive results; / = no result given; & = joins results of further samples. The list is partial; rates above refer to the full screens.
SMILES,KSHV LANA nucl,Ab BasE inh
COc1ccc(-n2nc(C(=O)N(C)C)nc2-c2ccccc2)cc1,2,-2.4
N#CC1=C(N)SC(N)=C(C#N)C1c1ccc(O)cc1,7.7,-48
CC1Cc2ccccc2N1C(=O)COC(=O)c1ccccn1 (configuration not stated),/,-2.1
O=C1CCCc2cc(S(=O)(=O)N3CCCN(Cc4ccccc4Cl)C3)ccc2N1,0.34,-1.4
COc1cc(C(=O)OCCCN2CCCN(CCCOC(=O)c3cc(OC)c(OC)c(OC)c3)CC2)cc(OC)c1OC,2.3&0.19,0.6
CCOc1ccc(-n2c(C)nc3cc(C(=O)NCCN4CCOCC4)ccc32)cc1,-0.66,-5.0
CC12CCC(C1)C(C)(C)/C2=N\O (configuration not stated),-0.33,0.7
Cc1cc(NC(=O)CSCC(=O)N=c2sc3ccccc3n2C)no1,0.26,9.3
Cc1ccc(C)n1-c1ccc(C2(O)CCSc3ccccc32)cc1 (configuration not stated),/,-4.2
Cc1ccc(C2=C[N+](=O)C(C)(C)C(C)(C)N2[O-])cc1,2.2,-4.6
CCN(CC(=O)Nc1ccc(NC(C)=O)cc1)CC(=O)Nc1cc(C)on1,/,15
O=C(CCCSc1nnc(-c2ccco2)n1-c1ccccc1)c1ccccc1,/,1.9
Cc1ccc(C(=O)CSc2nnc(-c3snnc3C)n2C2CC2)cc1,/,3.7
CCC(c1nnnn1C(C)(C)CC)N1CCN(c2ccccc2)CC1 (configuration not stated),-0.46,2.6
CCSc1ccccc1C(=O)Nc1cccc(OC)c1,-0.59,0.1

# As a short view, part of the list above:
SMILES,KSHV LANA nucl,Ab BasE inh
COc1ccc(-n2nc(C(=O)N(C)C)nc2-c2ccccc2)cc1,2,-2.4
N#CC1=C(N)SC(N)=C(C#N)C1c1ccc(O)cc1,7.7,-48
CC1Cc2ccccc2N1C(=O)COC(=O)c1ccccn1 (configuration not stated),/,-2.1
O=C1CCCc2cc(S(=O)(=O)N3CCCN(Cc4ccccc4Cl)C3)ccc2N1,0.34,-1.4

# Going on with the list:
SMILES,KSHV LANA nucl,Ab BasE inh
O=C(Cc1ccccc1)N/N=C/c1ccc(O)cc1,-0.55,6.4
NS(=O)(=O)c1ccc(NC(=O)CSc2nc3sc4c(c3c(=O)[nH]2)CCC4)cc1,/,0.7
CCOC(=O)c1ccccc1NS(C)(=O)=O,/,1.9
COc1cccc2cc(C(=O)Nc3ccc(N4CCNCC4)cc3)c(=O)oc12,-0.54,0.2
CCCN(C(=O)Cc1c(C(=O)O)n(CC)c2ccccc12)c1cccc(Cl)c1,/,2.4
O=C(c1ccccc1)c1c[nH]c2ccccc12,0.29,-3.4
COC(=O)c1sccc1NC(=O)CSCCc1ccncc1,0.47,0.7
CCCCNC(=O)c1ccc(CS(=O)c2ccccc2C)o1 (configuration not stated),-0.14,0.3
COc1ccc(CN(Cc2ccco2)C(=O)COc2ccccc2)cc1,1.2,0.4
CC(NC(=O)NC12CC3CC(CC(C3)C1)C2)C(=O)O (configuration not stated),/,1.5
CCC(c1nnc(SCC(=O)N(CC)c2ccccc2)o1)N(C)C (configuration not stated),/,-2.0
CN(C)c1nc(C(F)(F)F)cs1,/,4.2
Cc1ccc(NC(=O)CSCC(=O)N2CCN(c3ncccn3)CC2)c(C)c1,/,1.8
Cc1noc2ncnc(NC(C)(C)CO)c12,/,1.0
CC(C)(C)C(=O)/C=c1\s/c(=C\c2ccco2)c(=O)n1CC(=O)Nc1ccc(S(=O)(=O)N2CCOCC2)cc1,/,-2.1

# Quoted at random: four compounds from above.
SMILES,KSHV LANA nucl,Ab BasE inh
COc1ccc(CN(Cc2ccco2)C(=O)COc2ccccc2)cc1,1.2,0.4
COc1cc(C(=O)OCCCN2CCCN(CCCOC(=O)c3cc(OC)c(OC)c(OC)c3)CC2)cc(OC)c1OC,2.3&0.19,0.6
Cc1ccc(NC(=O)CSCC(=O)N2CCN(c3ncccn3)CC2)c(C)c1,/,1.8
CCSc1ccccc1C(=O)Nc1cccc(OC)c1,-0.59,0.1

# Some of these compounds in order of their number in KSHV LANA nucl, falling.
mol	KSHV LANA nucl
COc1ccc(CN(Cc2ccco2)C(=O)COc2ccccc2)cc1	1.2
COC(=O)c1sccc1NC(=O)CSCCc1ccncc1	0.47
O=C(c1ccccc1)c1c[nH]c2ccccc12	0.29
CCCCNC(=O)c1ccc(CS(=O)c2ccccc2C)o1 (configuration not stated)	-0.14
COc1cccc2cc(C(=O)Nc3ccc(N4CCNCC4)cc3)c(=O)oc12	-0.54
O=C(Cc1ccccc1)N/N=C/c1ccc(O)cc1	-0.55

# Later entries:
SMILES,KSHV LANA nucl,Ab BasE inh
O=C1CNC(=O)c2ccccc2N1,-1.1,0.6
CCOC(=O)C1=C(C)OC(N)=C(C(=O)OCC)C1c1ccncc1 (configuration not stated),-0.97,2.1
Cc1ccc(CN2C(=O)N/C(=C\c3cn(CC(=O)N4CCOCC4)c4ccccc34)C2=O)cc1,/,2.6
CCOC(=O)C1=C(C)Nc2ccccc2N=C1NC(=O)c1ccccc1C,/,1.6
Cn1c(C(=O)OC(C(=O)NCc2ccccc2)c2ccccc2)cc2sccc21 (configuration not stated),-0.28,0.3
O=C(Nc1ccncc1)OCCc1ccccn1,0.15,4.8
CNS(=O)(=O)c1c(I)ccc2ccccc12,/,-1.9
CC(C)(C)c1nc(Sc2ccc(C(F)(F)F)cn2)n[nH]1,-1.2,3.2
COC(=O)C(C#N)C(c1cccnc1)c1c(C)[nH][nH]c1=O (configuration not stated),0.33,-0.1
CC(=O)N1CCc2cc(S(=O)(=O)Nc3cc(C)ccc3C)ccc21,-0.92,0.2
COc1cccc(CN(C)C(=O)CNC(N)=O)c1OC,/,2.2
CC(C)(C)C(=O)Nc1nc2c(s1)CN(Cc1ccccc1)CC2,/,-1.5
CCC12C=CCN3CCC4(c5ccc(OC)cc5NC4C(O)(C(=O)OC)C1OC(C)=O)C32 (configuration not stated),-0.36,-0.2
C/C(=N\N1CCN(C)CC1)C1=C(O)c2ccccc2C1=O,0.4,1.4
O=S(=O)(c1ccc(NCCSCc2ccco2)nc1)N1CCCC1,/,1.3
CN(C)c1ccc(CN2CCCC2)cc1,0.14,-1.9
CS(=O)(=O)c1ccc(-c2cccc(NC(=O)c3ccc4c(c3)OCO4)c2)nn1,0.45,0.3
CCCCNC(=O)N1CCN(C(c2ccccc2)c2ccccc2)CC1,-1.1,-1.1
O=C(COc1ccc(-n2cnnn2)cc1)N1CCCc2ccccc21,/,-1.6
Cn1ccnc1SCc1csc(Nc2ccccc2)n1,/,0.8
CCSc1nc(=O)n(Cc2cccnc2)c2c1CCC2,0.31,2.3
O=C(c1cc2ccc3cccnc3c2[nH]1)N1CCN(Cc2ccccc2)CC1,/,-6.5
Nc1noc2c1C(C1CC=CCC1)C1=C2CCCC1=O (configuration not stated),-1.2,2.4
CSc1ncc(C(=O)Nc2cccc(F)c2)cn1,0.64,0.2
C[C@H](NC(=O)c1ccco1)C(=O)Nc1ccc2oc3ccccc3c2c1,/,0.2
CNC(=O)NC(=O)CSc1ncnc2sc(-c3ccccc3)cc12,/,-2.0
O=C(O)CC(=O)Nc1ccccc1,-0.56,/
N#Cc1ccc(OCC(=O)N2CCN(c3ccc(O)cc3)CC2)cc1,/,2.3
O=C1Cc2ccccc2C(=O)N1Cc1ccccn1,/,4.9
Cc1cc(C)n(-c2nc3ccccc3nc2N2CCN(C(=O)c3ccccc3Br)CC2)n1,-1.3,-1.1
Cn1c(N)c(C(=O)CN2CCN(S(=O)(=O)c3ccccc3C(F)(F)F)CC2)c(=O)n(C)c1=O,/,0.9
O=C(Cn1c(=O)oc2ccccc21)NCCc1ccco1,0.73,1.3
NC(=O)c1ncn([C@@H]2O[C@H](CO)[C@@H](O)[C@H]2O)n1,-0.48&2.3,/
COc1ccc(-c2noc(CNC(=O)C34CC5CC(CC(C5)C3)C4)n2)cc1,-0.64,0.4
Cc1ccc(S(=O)(=O)C2(S(=O)(=O)c3ccc(C)cc3)CCCC2)cc1,0.23,1.9
CCOc1ccccc1C(=O)Nc1c(O)c2ccccc2oc1=O,0.28,1.2
Cc1ccc(Cn2nc(C)c(/C=C/C(=O)OCc3nc4ccccc4c(=O)n3CC#N)c2C)cc1,/,-0.1
NC(=O)c1cccnc1-c1nc2ccccc2s1,-1.2,4.4
COc1ccccc1/C=N/OCn1nnc2ccccc2c1=O,/,-3.1
CN(C)c1ccc(/C=C2/CCC/C(=C\c3ccc(N(C)C)cc3)C2=O)cc1,-3.3,11
CC1CCN(CCCC(=O)c2ccc(F)cc2)CC1,-0.42,/
COc1ccccc1NCC(C)(C)CC=C(C)C,0.83,-2.4
NC(=O)c1ccccc1OCC(=O)N1CCC(Cc2ccccc2)CC1,/,-0.6
Cc1ccc(-n2nc3c(c2NC(=O)/C=C\c2ccccc2)CSC3)cc1,/,0.9
COc1c(F)c(F)c(C(=O)Nc2ccc(N3CCN(S(C)(=O)=O)CC3)cc2)c(F)c1F,-1.4,-0.4
C=CCn1c(SCC(=O)Nc2sc3c(c2C(=O)OC)CCC3)nnc1-c1cccnc1,/,-2.7
Cc1cc(NC(=O)Nc2ccc(Cl)cc2)n(C(C)(C)C)n1,0.9,1.4
COc1cccc(Nc2nc3c(S(=O)(=O)c4ccccc4)nnn3c3ccsc23)c1,-1.3,-0.3
CC(C)c1ccc(NC(=S)NCc2ccc(C#N)cc2)cc1,/,1.4
CCOC(=O)C1=C(C)NC(C)=C(C(=O)OCC)C1C(=O)OCN1C(=O)c2ccccc2C1=O,/,-1.8
O=C(c1ccccn1)N1CCc2ccccc2C1,/,2.2
COc1ccc(C(=O)OCC(=O)c2ccc3[nH]c(=O)[nH]c3c2)c(OC)c1,/,-5.2
c1ccc2c(c1)c1ccccc1c1nc(N3CCOCC3)nnc21,-0.45,3.0
NC(=O)CCN1C(=O)c2ccccc2C1=O,/,1.6
Cc1cn2c(nc3c2c(=O)n(C)c(=O)n3C)o1,0.65,0.1
c1ccc(N=C(CSc2nncs2)Nc2ccccc2)cc1,/,0.7
CCS(=O)(=O)N1Cc2ccccc2CC1C(=O)N=c1sc2ccccc2n1C (configuration not stated),/,-3.0
NC1CCOc2ccccc21 (configuration not stated),/,-0.6
CCC1CCCCN1CCCNc1cnnc2c(Cl)cccc12 (configuration not stated),/,-11
Cc1nc(O)c(C(c2ccccc2F)C(C#N)C#N)[nH]1 (configuration not stated),/,1.9
# More compounds:
SMILES,KSHV LANA nucl,Ab BasE inh
CC(=O)Nc1ccc(N/C=C/C(=O)C(C)(C)C)cc1,-0.24,-1.8
O=C1CCN(C(=O)CCCSc2nc3ccccc3[nH]2)CC1,/,-2.8
Cc1nc2ccccc2c(=O)n1NCc1ccccc1Br,/,0.1
O=C(NC(=S)Nc1ccc2[nH]c(=O)[nH]c2c1)c1ccccc1Br,-1,-0.1
O=C(O)CCCC(=O)NC1CCCc2ccccc21 (configuration not stated),/,-0.1
CC1CC(C)CN(c2ccc(NS(=O)(=O)c3ccccc3)cc2C(=O)O)C1 (configuration not stated),/,-1.1
CN1CCc2nc(NC(=O)Cc3coc4cc5c(cc34)CCC5)sc2C1,/,-3.6
Cc1ccc(CN2C(=O)CN(C3CCCC3)C(=O)C2c2ccc(F)cc2)cc1 (configuration not stated),0.38,0.6
Cc1cccnc1NC(=O)C(F)(F)C(F)(F)C(F)(F)F,-1.7,-2.7
CC1CCCCN1c1nnc(NC(=O)NC2CCCC2)s1 (configuration not stated),-0.61,0.1
CN(C)S(=O)(=O)c1ccc(C(=O)N2CCN(C(=O)c3ccccc3)CC2)cc1,/,-2.0
COCc1c(CSSCc2cnc(C)c(O)c2COC)cnc(C)c1O,-1.2,2.4
Cc1nnc(SCC(=O)NC(C)c2ccc(CC(C)C)cc2)n1N (configuration not stated),/,2.2
Cc1cc(/C=C(\C#N)C(N)=S)c(C)n1C1CC1,/,-1.0
Nc1[nH]n(-c2ccccc2)c(=O)c1C1=NCCCCC1,/,3.5
CC(OC(=O)c1nn(C)c(=O)c2ccccc12)C(=O)N1CCCC1 (configuration not stated),/,2.0
Cc1cc2nccc(-c3ccccc3)n2n1,1.2,/
N#Cc1c(SCCCOc2ccccc2)sc2c(=O)[nH]c(=O)[nH]c12,1.7,/
CSc1nc2ccc(NC(=O)CCNC(C)=O)cc2s1,/,-2.7
CC(=O)N(/C=C1\SC(=S)N(Cc2ccccc2)C1=O)c1ccccc1,/,1.7
Cc1cc(C)n(-c2ccc(CSc3nnc(-c4ccc(OC(F)F)cc4)o3)cc2)n1,/,-0.8
Cc1ccccc1Nc1nc(N)nc(CNc2cccc(F)c2)n1,/,-5.7
c1coc(-c2nc3nc4ccccc4nc3n2-c2ccc3c(c2)OCCO3)c1,-0.73,1.2
CC(CCc1ccccc1)NC(=O)COc1ccc(-n2cnnn2)cc1 (configuration not stated),/,2.0
O=C(c1ccccc1Oc1ccccc1)N1CCn2c1nc1ccccc12,/,-0.7
Cc1cnn(C(=S)NCc2ccco2)c1,0.16,0.8
COc1ccc(S(=O)(=O)NCc2csc(-c3ccccc3)n2)cc1,-0.15,-0.3
CCc1ccc(C(=O)Nc2ccc(S(N)(=O)=O)cc2)cc1,/,3.1
O=C(O)CCc1cccnc1,/,-1.8
O=C1C2=C(C(=O)N1c1ccc(Br)cc1)C(c1ccccc1)=NCCN2,/,2.5
CC1C(c2ccc(F)cc2)=NOC1C(=O)O (configuration not stated),0.18,1.9
CCC(C)NC(=O)Cn1cnc2onc(-c3ccc(Cl)cc3)c2c1=O (configuration not stated),0.018,0.6
Cc1cc(C)nc(SCc2ccccc2C(=O)N2CCN(Cc3ccc4c(c3)OCO4)CC2)n1,/,3.5
CCOC(=O)C1CCCN(c2cc(C)nc3cc(-c4ccc(Cl)cc4)nn23)C1 (configuration not stated),0.14,0.4
